Marburg entry inh: inhibitors of Marburg virus binding or cell entry. Marburg virus pseudotyped entry inhibition, cell reporter; control for the full effect not named in the record; about a third of the inactives were read at about 46 µM. Potency, µM (series often up to 37.8 µM), inactives show top-dose activity change, negative = inhibition, hits mostly inhibitors. 300,000 compounds, 1.8% hits; active = well fitted inhibition curve with a large enough effect; inconclusive = small, poorly fitted or top-dose-only effect, or effect the other way; inactive = flat fitted curve, though single readings scatter; tested in HEK293 cells; about a fifth of its hits are not listed in these tables; further: on the % scale 0 is the no-effect control and ±100 the full control effect; luciferase read-out
SARS PLP yeast: inhibitors of SARS-CoV papain-like protease in yeast | S. cerevisiae expressing SARS-CoV PLpro, growth rescue; control for the full effect not named in the record | Potency, µM (series often up to 32.9 µM), for inactives: at the top dose activity, positive = growth rescue | 330,000 compounds, 0.19% hits | AID 485353; further: 0% is about no effect; nearly all actives have a fitted effect of over 55% in size; growth read by luminescence after 48 h
StopGo reporter: lowers the luciferase signal of an FMDV 2A StopGo reporter; human cells with a luciferase reporter of 2A StopGo recoding; control for the full effect not named in the record; Potency, µM (highest dose often 57.9 µM), for the others: top-dose signal change, negative = less light; 410,000 compounds, 1.2% hits; active = well fitted falling curve with a large enough effect; inconclusive = small, poorly fitted or top-dose-only effect; inactive = no such curve, though single readings can be large or run the other way; tested in HEK293T cells; further: on the % scale 0 is the no-effect control and ±100 the full control effect; nearly all actives have a fitted effect of over 45% in size; luciferase light after 4 h
Cruzain noTriton: inhibitors of Trypanosoma cruzi cruzain without detergent | purified cruzain, Z-FR-AMC fluorescence, no detergent | 200,000 compounds, 2.3% hits | P25779 | Potency, µM, inactives show max response, negative = inhibition, usual class: inhibitors; active means well fitted curve in the direction sought with a large enough effect; inconclusive means small, poorly fitted or top-dose-only effect, or another doubt; inactive means no such curve, though single readings can be large; an effect the other way counts as inactive or inconclusive;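 further: plate controls were enzyme without inhibitor for no effect and buffer without enzyme for full effect; nearly all actives have a fitted effect of over 40% in size; top concentration of the series not given in the record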
Target sequence (P25779 123-467 limits assumed): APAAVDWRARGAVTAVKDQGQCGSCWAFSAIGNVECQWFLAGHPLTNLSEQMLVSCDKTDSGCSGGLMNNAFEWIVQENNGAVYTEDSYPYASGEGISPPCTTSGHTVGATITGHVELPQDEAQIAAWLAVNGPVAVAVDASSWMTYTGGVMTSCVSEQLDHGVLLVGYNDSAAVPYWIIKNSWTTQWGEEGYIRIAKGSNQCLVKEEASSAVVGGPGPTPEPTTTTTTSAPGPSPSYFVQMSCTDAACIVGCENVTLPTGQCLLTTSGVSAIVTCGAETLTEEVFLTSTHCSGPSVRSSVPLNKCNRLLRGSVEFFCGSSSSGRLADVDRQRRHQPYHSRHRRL
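Detergent-free condition (0.00005% Triton X-100) in acetate buffer pH 5.5 with DTT. 1.5 nM enzyme and compound were pre-mixed 15 min, then 2 uM Z-FR-AMC substrate added; reaction progress from fluorescence change between first and third reads (60 s).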
Lassa entry inh: inhibitors of Lassa virus binding or cell entry | 300,000 compounds, 1.2% hits | AID 540256 | Potency, µM (series often up to 37.9 µM), for inactives: at the top dose activity change, negative = inhibition, usual class: inhibitors | Lassa virus pseudotype entry inhibition, cell reporter; control for the full effect not named in the record; active means well fitted inhibition curve with a large enough effect; inconclusive means small, poorly fitted or top-dose-only effect, or effect the other way; inactive means flat fitted curve, though single readings scatter; tested in HEK293 cells; further: on the % scale 0 is the no-effect control and ±100 the full control effect; nearly all actives have a fitted effect of over 50% in size; luciferase read-out
Cruzain inh Det: blocks cruzain activity in presence of Triton detergent | purified cruzain, Z-FR-AMC fluorescence, 0.01% Triton | 200,000 compounds, 0.43% hits | AID 1478 | Potency, µM, for inactives: max response, negative = inhibition, hits mostly inhibitors | P25779; active means well fitted curve in the direction sought with a large enough effect; inconclusive means small, poorly fitted or top-dose-only effect, or another doubt; inactive means no such curve, though single readings can be large; an effect the other way counts as inactive or inconclusive;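 further: plate controls were neutral wells for no effect and buffer without enzyme for full effect; nearly all actives have a fitted effect of over 40% in size; top concentration of the series not given in the record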
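Detergent-containing arm of a paired screen for aggregation-based inhibition: 0.01% Triton X-100 present. Cruzain at 1.5 nM cleaved 2 uM Z-FR-AMC at pH 5.5 with 5 mM DTT; AMC fluorescence gain over 60 s measured activity.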
NS1 function inh: blocks influenza NS1 protein function | 270,000 compounds, 0.4% hits | AID 2326 | Potency, µM (highest dose often 46.1 µM), for inactives: at the highest dose activity, positive = more growth | S. cerevisiae slowed by influenza A NS1, growth recovery by OD600; further: actives are rising curves; nearly all actives have a fitted effect of over 50% in size
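Read-out: OD600 growth recovery of NS1-expressing budding yeast. Cells grown overnight at 30C in -URA glucose medium, washed, resuspended and diluted 1:100 in 2% galactose assay medium, pH 6.0. Same strain lacking NS1 served as positive control.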
RE007 growth inh: less growth of the S. pombe RE007 Vpr strain | Potency, µM (doses to about 92.2 µM), without a hit: at the top dose activity change, negative = less growth | AID 651644 | S. pombe RE007 Vpr strain, BacTiter-Glo ATP luminescence, 24 h; control for the full effect not named in the record | 360,000 compounds, 0.21% hits; active = well fitted falling curve with a large enough effect; inconclusive = small, poorly fitted or top-dose-only effect; inactive = no such curve, though single readings can be large or run the other way;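 further: on the % scale 0 is the no-effect control and ±100 the full control effect; nearly all actives have a fitted effect of over 50% in size; the assay follows cell death caused by Vpr and the record does not say whether a fall means rescue or toxicity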
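Fission yeast strain RE007, carrying one chromosomally integrated HIV-1 vpr copy, was seeded at OD 0.01 in PMG+AL medium with 23 nL pinned compound. After 24 h at 30 °C and 99% humidity, viability was read by BacTiter-Glo luminescence.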
Active calls of the source: *; u = inconclusive; x = no result given; [ ] = another dose, or the depositor's remark. Unless noted, the call rests on the fitted dose curve; in most records, active means well fitted rising curve with a large enough effect; inconclusive means small, poorly fitted or top-dose-only effect; inactive means no such curve, though single readings can be large or run the other way. Potency means the concentration at half of the fitted maximal effect.

SMILES	Marburg entry inh	SARS PLP yeast	StopGo reporter	Cruzain noTriton	Lassa entry inh	Cruzain inh Det	NS1 function inh	RE007 growth inh
COc1cc(C2OCC3C(c4cc(OC)c(OC)c(OC)c4)OCC23)cc(OC)c1OC (configuration not stated)	x	1%	-18%	x	x	x	3%	9%
O=C1Nc2ccccc2C12Nc1ccccc1-c1nc3ccccc3n12 (configuration not stated)	-6%	3%	0%	21%	-2%	-10.0%	-24%	5%
CCc1cccc(OCC(=O)Nc2ccc(S(=O)(=O)N3CCCC3)cc2)c1	-14%[46.1 µM]	-1%	-29%	x	-29%[46.1 µM]	x	15%	4%
O=C(O)CCC(=O)N1CCC(C(=O)c2cccc(Cl)c2)CC1	8%	-2%	8%	-2%	1%	-2.4%	-1%	0%
O=C(Cc1nn[nH]n1)Nc1ccc(F)cc1F	4%[46.1 µM]	1%	0%	x	20%	x	1%	27%
CCSC1(SCC)N=C(N)C2(C#N)C(c3ccccc3)NC(C)=C(C)C12C#N (configuration not stated)	-12%	-1%	-18%	u	-8%	2.7%	7%	56µM*
CC(C1CC1)N(Cc1ccccc1)C(=O)NC(=O)c1ccc(F)cc1 (configuration not stated)	5%	0%	12%	x	11µM*	x	x	-2%
COC(=O)c1sc(NC(=O)CSc2nnnn2-c2ccc(C)cc2C)nc1C	u	1%	9%	-23%	1%	5.0%	3%	21%
COc1cc(/C=C/C(=O)OCC(=O)N2CC(=O)Nc3ccccc32)ccc1O	x	0%	-12%	x	x	x	u	5%
CC(Sc1nnc(CN2CCCC2)n1Cc1ccccc1)C(=O)Nc1ccc(F)cc1Cl (configuration not stated)	u	x	0%	x	-25%	x	x	-19%
CCOc1ccc2nc(NC(=O)C3=NN(c4ccccc4)C(=O)CC3)sc2c1	x	-1%	4%	x	x	x	9%	-14%
COc1ccc(N2CC(NC(=O)c3ccc(S(=O)(=O)N4CCCC4)cc3)CC2=O)cc1 (configuration not stated)	x	x	-13%	10%	8%[46.1 µM]	1.6%	x	x
Cc1cc(/C=C\c2nc(O)c([N+](=O)[O-])c(=O)[nH]2)c(C)n1-c1ccccc1	9%[46.1 µM]	0%	2%	x	0%	x	x	2%
Cc1cc(C)c(S(=O)(=O)NCC(c2ccco2)N2CCOCC2)c(C)c1 (configuration not stated)	x	x	5%	15%	-17%[46.1 µM]	-0.1%	x	x
Cc1oc(-c2cccc(F)c2)nc1CN1CCCCC1CCn1cccn1 (configuration not stated)	x	-1%	-17%	x	x	x	12%	4%
Cc1ccc(S(=O)(=O)N2CCN(c3cnn(C)c(=O)c3Cl)CC2)cc1	-2%[14.2 µM]	-2%	-30%	x	-4%	x	x	5%
N=c1sccn1CC(=O)N1N=C(c2ccc(Cl)cc2)CC1c1ccco1 (configuration not stated)	u	-3%	-20%	x	2%	x	-3%	-5%
COC(=O)c1sccc1NC(=O)Nc1cc(C)ccc1C	14%[46.1 µM]	-2%	1%	x	0%[46.1 µM]	x	-1%	12%
CC(C)c1nn2c(=O)cc(COC(=O)COc3ccccc3F)nc2s1	x	x	-10%	9%	-5%[46.1 µM]	-0.9%	x	x
CC(=O)c1ccc(NC(=O)[C@@H]2CCCN2C(=O)OC(C)(C)C)cc1	u	1%	17%	x	u	x	1%	10%
COc1cccc(C(=O)Nc2cc3c(cc2Br)OCCCO3)c1	u	6%	39%[activator]	-2%	u	-3.6%	-12%	5%
CCc1cccc(C)c1NC(=O)c1cc(S(=O)(=O)N(Cc2ccc(C(=O)OC)cc2)Cc2ccc(OC)c(OC)c2)ccc1F	x	x	-16%	9%	-12%[46.1 µM]	1.0%	x	x
CC(=O)C1(O)CCC2C3CC(C)C4=CC(=O)C=CC4(C)C3(F)C(O)CC21C (configuration not stated)	-10%	x	-4%	x	9%[46.1 µM]	x	x	-7%
CCSc1nc2ccccc2n1CC(=O)N1CCOCC1	2%	0%	0%	2%	0%	6.2%	u	-5%
O=C(Cc1ccccc1)N1CCN(Cc2cccc(Br)c2)CC1	x	-2%	-23%	x	x	x	-6%	-2%
CCOc1ccc(CNc2ccc3c(c2)nc(C)n3C)cc1	x	-3%	5%	1%	-19%	-2.0%	-14%	-15%
COCCNC(=O)c1ccc(-c2nc(CN3CCc4ccccc43)c(C)o2)cc1	x	x	u	u	1%[46.1 µM]	-4.8%	x	x
Cc1ccccc1-c1cc(C(=O)NCC2CC2)nn1CC1CC(c2cccc([N+](=O)[O-])c2)=NO1 (configuration not stated)	-3%	2%	-17%	x	x	x	x	14%
O=C(CC1SC(N2CCOCC2)=NC1=O)Nc1ccc(F)cc1 (configuration not stated)	21%	-1%	-20%	x	0%	x	x	-13%
CN(CC(=O)NC(=O)Nc1ccccc1F)Cc1ccccc1	u	-3%	23%	x	-22%	x	x	-7%
O=C(NCc1ccc2c(c1)OCO2)c1ccc(CSCc2cccc(Cl)c2)o1	8%	-5%	-16%	-1%	0%	-4.2%	-4%	18%
O=C(O)CSCCOc1ccc(OCCSCC(=O)O)cc1	1%	14%	-7%	9%	3%	-0.9%	-6%	-18%
CC(C)(C)c1ccc(C(=O)NNC(=O)Cc2ccccc2)cc1	31%	-1%	x	-3%	-2%	-0.7%	-48%	1%
COc1ccc(-c2cc(-c3n[nH]c(=S)n3-c3ccccc3Cl)[nH]n2)cc1	11%[46.1 µM]	0%	-7%	x	-15%[46.1 µM]	x	x	-10%
Cn1c(=O)c2c(nc(N3CCCCCC3)n2CC(O)COc2ccc(Cl)cc2)n(C)c1=O (configuration not stated)	0%	-4%	-20%	u	u	-6.7%	-57%	-1%
Cc1ccc(NC(=O)CSc2nc(N)cc(=O)[nH]2)cc1Cl	2%[46.1 µM]	3%	0%	x	1%	x	x	-4%
CC1CCc2c(C(=O)Nc3cccc(-c4nn[nH]n4)c3)csc2C1 (configuration not stated)	x	-4%	20%	x	x	x	-5%	16%
Cc1cnn(Cc2cccnc2)c1N	14%[46.1 µM]	3%	2%	x	23%	x	0%	1%
CCOC(=O)c1oc2nc(CC(C)C)c3c(c2c1N)CCCC3	u	-2%	6%	x	u	x	5%	3%
CCOc1ccc(Nc2cc(C)c(C#N)c3nc4ccccc4n23)cc1	1%[46.1 µM]	x	-20%	-1%	2%[46.1 µM]	-2.3%	x	x
CCOc1ccccc1NC(=O)COC(=O)COc1c(Cl)cc(Cl)c2ccc(C)nc12	4%[46.1 µM]	x	-5%	x	23%	x	x	-3%
COc1ccc(OC)c(NC(=O)N2CCC3(CC2)Oc2ccccc2C(=O)N3Cc2ccccc2F)c1	u	x	-30%	-3%	x	-9.7%	x	x
O=C(CSc1n[nH]c(=O)n1Cc1ccco1)Nc1ccccc1Cl	0%	1%	-29%	x	3%	x	-2%	-2%
CS(=O)(=O)c1ccc2nc(NC(=O)c3ccccc3Cl)sc2c1	x	-5%	42%[activator]	x	x	x	16%	16%
COc1cccc(/C(O)=C2/C(=O)C(=O)N(Cc3cccnc3)C2c2ccco2)c1 (configuration not stated)	u	-28%	25%	-13%	u	-2.0%	3%	-6%
Cc1c(C(=O)OC2CCCCC2)sc2nc[nH]c(=O)c12	7%	-8%	18%	u	10%	-5.0%	-92%	-1%
O=C(N/N=C/c1ccccn1)c1cccnc1	x	-1%	21%	x	x	x	-1%	11%
Nc1ccc(C(=O)N/N=C/c2cn(Cc3ccccc3)c3ccccc23)cc1	u	6%	-18%	x	-11%	x	1%	1%
CCOC(=O)C1=C(C)NC(C)=C(C(=O)OCC)C1c1cccs1	-7%	-7%	u	7%	0%	-3.7%	6%	4%
CCCCOC(=O)/C(=C/C=C/c1ccccc1)NC(=O)c1ccccc1	-6%[46.1 µM]	1%	38%[activator]	x	-11%	x	x	7%
Cc1cccc(-c2nnc(SCc3cc(=O)[nH]c4ccccc34)n2C)c1	5%	3%	-11%	1%	6%	3.8%	8%	13%
CC1(c2ccccc2)NC(=O)N(CCOc2ccccc2)C1=O (configuration not stated)	-7%	-1%	-26%	8%	1%	4.7%	-32%	0%
CCSc1ccccc1C(=O)n1nnc2ccccc21	-21%	x	u	-11%	-4%	-20%	-102%	21%
Cc1cc(COc2ccccc2OCc2cc(C)no2)on1	26%	-17%	-8%	11%	2%	1.4%	-5%	-12%
CCOC(=O)N1CCN(c2ccc(C(=O)c3ccccc3)cc2F)CC1	-9%	-3%	-22%	6%	u	-12%	-17%	u
COC(=O)N1N=C(c2ccc(Br)cc2)CC1(O)C(F)(F)F (configuration not stated)	-23%	8%	-14%	1%	-16%	-3.5%	-7%	39%
COC(=O)CCC(C)N1CCC(Oc2ccc(C(=O)NCc3ccccn3)cc2)CC1 (configuration not stated)	x	-2%	-18%	x	x	x	-22%	-2%
CCOc1ccc2nc(N3CCCC(C(=O)NCCc4ccc(OC)cc4OC)C3)sc2c1 (configuration not stated)	u	x	-1%	u	x	-4.8%	x	x
Cc1c(NC(=O)Nc2ccccc2[N+](=O)[O-])c(=O)n(-c2ccccc2)n1C	7%[46.1 µM]	3%	-8%	x	5%[46.1 µM]	x	0%	12%
CC(C)(C(N)=O)c1ccccc1	0%[46.1 µM]	2%	5%	x	3%[46.1 µM]	x	0%	1%

Other compounds.
SMILES	Marburg entry inh	SARS PLP yeast	StopGo reporter	Cruzain noTriton	Lassa entry inh	Cruzain inh Det	NS1 function inh	RE007 growth inh
COc1ccccc1C(=O)N/C(=C\c1cn(C)c2ccccc12)C(=O)N1CCOCC1	x	2%	24%	x	x	x	-12%	6%
Cc1cccc(COCC(CC(C)C)N2CCN(C(=O)c3ccc(C(C)(C)C)cc3)CCC2=O)c1 (configuration not stated)	u	-8%	u	25%	u	-6.3%	-44%	3%
O=C(c1noc2c1CCc1ccccc1-2)N1CCCc2ccccc21	u	-13%	13%	-9%	3%	-5.2%	-109%	-9%
CCOC(=O)c1[nH]c(C)c(C(=O)NCCCOC(C)C)c1C	-6%	2%	-5%	-2%	0%	-2.6%	1%	-14%
CCCCN(CCCC)C1=Nc2ccccc2N/C1=C(/C#N)C(=O)OCC	u	1%	u	-4%	u	-6.8%	4%	-2%

Compound activity (PubChem BioAssay)
